Mtb hypoxia rep: PubChem AID 1159583; M. tuberculosis hypoxia-regulated fluorescent reporter, fluorescence; fluorescence inhibition, % (no concentration beside the values); actives 0.1% (n = 300,000);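 active = 35 to 45% if threefold the growth effect, above 45% if 1.5-fold the growth effect; inactive = the rest, general growth blockers included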;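 also: wells of about 50 µL received 100 nL stock; 0% = vehicle wells and 100% = reference inhibitor wells; whole bacteria with a GFP reporter of the hypoxia response; strong numbers were not always called active; many hits fall short of the cut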
BJeLR lethal: MLPCN primary cell-based screen for lethality selective to Ras in HRASV12 cells; actives 0.17% (n = 300,000); inhibition, % (no concentration beside the values); BJeLR (HRASV12) viability, CellTiter-Glo ATP luminescence, 48 h; reference of the scale not given here;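 active = replicate mean above 50%; inconclusive = above 50% but judged a plate artefact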;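 also: 50 nL library stock added to about 25 µL; numbers are from one replicate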
Sa RN4220 lethal: growth inhibition of S. aureus RN4220, primary screen, OD600 | 16 h | inhibition, % (test concentration not listed) | actives 0.33% (n = 330,000) | AID 1259311, 2017;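 active = z-score of -3 or lower and OD600 up to 0.18 on both plates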;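 also: plate controls were untreated cells for no effect and reference antibiotic for full effect; stock transfer was 100 nL into about 80 µL; one replicate is shown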
Bead autofluor: counter-screen for toxin protease inhibitors: compound fluorescence | compound autofluorescence counterscreen, microsphere flow cytometry; active compounds read high | fluorescence intensity (test concentration not listed) | actives 3.1% (n = 360,000) | AID 624483;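 active = at least 3 SD above the mean of all compounds, about 16000 in these data; inconclusive = too few beads counted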;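 also: 100 nL of 1 mM stock went into each well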
Sa ugtP lethal: growth inhibition of ugtP-null S. aureus, primary screen, RN4220 ugtP deletion, OD600; actives 0.54% (n = 330,000); 16 h; some inactives read as strong as hits; growth inhibition, % (concentration not given with the values);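 active = z-score under -3 and OD600 up to 0.15 on both plates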;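 also: plate controls were untreated wells for no effect and antibiotic for full effect; wells of about 80 µL received 100 nL stock; the first replicate is given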
PrP UTR inh: inhibition of PrP 5' UTR reporter expression; AID 488862, 2010; inhibition, % (test concentration not listed); actives 0.35% (n = 340,000); cell-based PrP 5' UTR mRNA reporter, plate reader;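 active = every replicate at 50% or more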;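 also: 0 = median of the neutral control wells; tested in H4 reporter cells; numbers are from one replicate; inactives centre near -14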
Mtb hypoxia rep growth: recorded beside Mtb hypoxia rep, whose call it bears; growth inhibition, %; measured here: M. tuberculosis growth (absorbance);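 0% = vehicle and 100% = reference antibiotic; read after six days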
An asterisk follows results filed as active; ? = inconclusive; / = no result given; & = joins results of further samples.

SMILES	Mtb hypoxia rep	Mtb hypoxia rep growth	BJeLR lethal	Sa RN4220 lethal	Bead autofluor	Sa ugtP lethal	PrP UTR inh
Cc1c(C)c2c(OCC(=O)NCC(O)c3ccccc3)cc3c(c2oc1=O)CCC(C)(C)O3 (centres undefined)	/	/	3	-0.5	4072	11	-6
O=C(COC(=O)CNS(=O)(=O)c1ccc(Cl)cc1)NC1CCCCC1	8	0	/	3.9	?	15	-12
COc1ccc(C2C=C(c3ccc(C)cc3)Nc3ncnn32)cc1 (centres undefined)	16	6	1	-7.5	3203	-3	-90
CCn1c(SCC(=O)Nc2cccc(S(=O)(=O)N(C)c3ccccc3)c2)nnc1C1CC1	3	-2	/	2.8	2805	4	-19
CC(C)CN1CCN(CCCOC(=O)Nc2cccc3ccccc23)CC1C (centres undefined)	11	8	/	2.8	3804	2	-56
CCCCNc1c(-c2ccc(OC)c(SC(C)CC)c2)nc2cc(C)ccn12 (centres undefined)	16	16	/	-0.1	3621&6922	-15	-10
O=C(CNC(=O)c1ccc(F)cc1)N/N=C/c1cc(Br)ccc1OC(=O)/C=C/c1ccco1	/	/	22	/	4567	/	5
CCOC(=O)C1=C(C)N=C2SC(C)C(=O)N2C1c1ccccc1 (centres undefined)	2	11	-12	3.5	5139	9	-10
CCOC(=O)Cn1c(CN2CCOCC2)nc2c1c(=O)[nH]c(=O)n2C	5	7	1	10	5602	11	-12
CCn1nnnc1SCC(=O)N1c2ccccc2CCc2ccccc21	6	3	-2	1.6	4042	3	-8
CS(=O)(=O)N1CCN(c2ccccc2NC(=O)CSc2nnc(-c3ccco3)o2)CC1	10	3	11	4.8	2515	0	-16
CCOc1cc(C=O)ccc1O	/	/	/	0.6	4083	10	-10
C#CCOCCOCCOCCNc1nc(N2CCN(C(=O)Cn3cc(CCCN=C(N)N)nn3)CC2)nc(N2CCN(C(=O)[C@H](CCCCN)n3cc(CC(C)O)nn3)CC2)n1 (some centres undefined)	2	11	/	-13	3973	-2	-30
Cc1ccc(NC(=O)CN2C(=O)NC3(CCCCCC3)C2=O)cc1Cl	-11	7	/	-2.9	3847	-15	3
O=C(NCC(c1ccco1)N1CCN(c2ccc(F)cc2)CC1)C1CCCCC1 (centres undefined)	4	8	-6	-0.2	/	8	-32
NC(=O)c1ccc(NC(=O)C2CCCO2)cc1 (centres undefined)	/	/	0	1.1	4387	-1	-16
COC(=O)C1=C(C)Nc2nnnn2C1c1ccco1 (centres undefined)	12	13	7	-2.4	2805	-4	-3
CCc1noc(C)c1C(=O)OCC(=O)Nc1c(F)cccc1F	5	3	-3	5.4	/	5	-12
COc1ccc(C(=O)NC(=O)CSc2nnc(-c3ccco3)n2-c2ccccc2)cc1	-4	10	/	18	2605	4	3
COc1cc2nc(-c3ccccc3C)oc(=O)c2cc1OC	-12	9	-2	0.1	3946	6	-10
Cc1cccc(NC(=O)CN2CCN(C(=O)c3cnn(Cc4ccccc4)c3)CC2)c1C	26	4	/	-0.1	2806	2	-21
O=C(Cc1ccc(F)cc1)Nc1nc(-c2ccc(F)cc2)cs1	14	-1	-10	-0.9	5281	54	-17
N#CCn1nnc(-c2ccc3c(c2)OCO3)n1	-4	0	8	-1.3	5781	-11	1
CCN(C[C@H]1N[C@@](Cc2ccccc2)(C(=O)OC)[C@H]2C(=O)N(C)C(=O)[C@@H]12)C(=O)c1ccc(C)cc1	-20	2	/	2.9	3705	-4	7
Cc1cccc(NC(=O)[C@H](Cc2ccccc2)NC(=O)[C@@H]2Cc3ccccc3CN2)c1	7	0	4	3.6	5470	14	-28
CCOCC(=O)Nc1ccccc1C(=O)OCC	/	/	4	-2.7	3849	-1	-4
Clc1cc2c(nn1)Nc1ccccc1S2	1	-2	0	5.7	4469	7	-6
COc1ccc(N(CC(=O)NC2CC3CCC2C3)S(=O)(=O)c2ccc(C)cc2)cc1OC (centres undefined)	2	2	-6	3.3	6074	4	1
Cc1ccc(CCC(=O)Nc2ccc(C#N)cc2)o1	-13	-5	-5	0.2	5758	-3	-5
CC(NC(=O)C(C)N1C(=O)C2C3CC(C(Br)C3Br)C2C1=O)c1ccccc1 (centres undefined)	10	9	-2	7.2	7427	16	-33
CC(C)C[C@@H](CO)N1CCN(Cc2ccc(Br)cc2)CCC1=O	/	/	3	/	3737	/	3
COc1ccccc1C(=O)NCCC(=O)Nc1ccc(S(=O)(=O)N2CCCC(C)C2)cc1 (centres undefined)	-2	3	/	3.5	4208	-2	-21
O=S(=O)(Nc1cccc2ccccc12)c1ccccc1F	13	0	2	8.2	2985	0	-6
Cc1ccc2[nH]c3c(=O)n(N)c(C)nc3c2c1	12	12	-3	9.1	3631	2	-40
COP(=O)(OC)C(Nc1ccccn1)c1ccccc1 (centres undefined)	4	6	-10	9.1	7883	-1	-19
CC(Sc1nc2ccccc2o1)C(=O)O (centres undefined)	-2	7	11	2.5	20941*	-8	-34
CN(c1ccccc1)c1nc(N)c([N+](=O)[O-])c(NC2CCCCC2)n1	-7	-24	0	-0.8	4040	-3	-3
CC(C)c1nnc(NC(=O)CS(=O)(=O)c2ccccc2)s1	-2	3	-1	2.1	6129	0	-33
CC1CCN(C(=O)N2c3ccccc3Sc3ccccc32)CC1	/	/	0	1.9	5189	15	-12
O=c1[nH]c(SCc2cccc(F)c2)nc2ccccc12	4	2	-5	3.8	6207	-14	-9
CC(NC(=O)Cc1cccc2ccccc12)C(=O)N1CCC(=O)CC1 (centres undefined)	13	9	2	-1.6	4824	8	-29
CC(=O)Nc1ccc(S(=O)(=O)N2CCSc3ccccc32)cc1	6	5	/	11	2945	-6	-23
O=C(O)c1ccccc1SCc1cn2cc(Cl)ccc2n1	/	/	5	/	2143	/	-26
COc1ccc(C(=O)O)cc1S(N)(=O)=O	-4	9	7	1.9	5083	2	-17
Cc1ccccc1N1C(N)=NC(N)=NC1(C)C	/	/	-6	-8.6	2829	7	-13
COc1cc2c3c(c1)/C(=C1/SC(NC(C)=O)=NC1=O)C(=O)N3C(C)(C)C=C2C	/	/	-11	-6.9	4949	9	-20
CCN(CC(=O)Nc1ccc(N2CCOCC2)cc1)C(=O)COc1ccccc1OC	/	/	5	/	2470	/	-14
Cc1nnc2c(NC3CCCCC3)nc3ccccc3n12	15	-7	12	2.7	3432	13	-9
CCN(CC)S(=O)(=O)c1ccc(N2CCOCC2)c(NC(=O)c2ccc3ccccc3c2)c1	9	4	3	14	2049	-2	12
Oc1ccc(/C=N\Nc2cc(N3CCOCC3)nc(N3CCOCC3)n2)c(O)c1	/	/	5	/	10673	/	-7
COc1ccc(N(C(=O)C2CCCCC2)C2C=CS(=O)(=O)C2)c(OC)c1 (centres undefined)	-1	-2	-4	7.8	7924	1	-18
O=C(Nc1ccc(N2CCOCC2)c2nonc12)C1CCCC1	/	/	-3	0.1	4077	4	-32
Cc1ccc(S(=O)(=O)N2[C@@H](c3ccc(Br)cc3)C(C(=O)O)=C[C@H]2CC2CCCC2)cc1	-10	1	/	34	4015	11	-11
CCN(CC)C(=O)c1c(C)nc2ccccn12	/	/	1	0.0	2839	5	-13
O=C(CSc1nnc(CNc2ccc(F)cc2)n1Cc1ccccc1)N1CCOCC1	2	4	-6	-3.4	4033	-8	-11
Cc1cc(=O)[nH]c(SCC(=O)Nc2cc(S(=O)(=O)N3CCCC3)ccc2Cl)n1	5	3	-12	8.6	3974	2	/
Cc1ccc(N2CC(C(=O)Nc3nnc(C(C)C)s3)CC2=O)cc1 (centres undefined)	-2	7	3	4.0	22336*	1	-5
CCOc1ccc(N2C(=O)c3ccc(C(=O)OCc4c(C)noc4C)cc3C2=O)cc1	-6	5	-1	2.4	4049	-3	-8
O=C(CSc1ccccc1)Nc1cccc(S(=O)(=O)N2CCOCC2)c1	4	4	/	4.9	/	7	-15
CC(C)C(=O)Nc1ccc(C(=O)NNC(=S)NC(=O)c2ccco2)cc1	1	1	-4	8.8	4316	1	-7

Record cards, from the list above:
`Cc1ccc(NC(=O)CN2C(=O)NC3(CCCCCC3)C2=O)cc1Cl` is entered as Mtb hypoxia rep: -11; Mtb hypoxia rep growth: 7; BJeLR lethal: /; Sa RN4220 lethal: -2.9; Bead autofluor: 3847; Sa ugtP lethal: -15; PrP UTR inh: 3
`CCOc1ccc(N2C(=O)c3ccc(C(=O)OCc4c(C)noc4C)cc3C2=O)cc1` is entered as Mtb hypoxia rep: -6; Mtb hypoxia rep growth: 5; BJeLR lethal: -1; Sa RN4220 lethal: 2.4; Bead autofluor: 4049; Sa ugtP lethal: -3; PrP UTR inh: -8
`CN(c1ccccc1)c1nc(N)c([N+](=O)[O-])c(NC2CCCCC2)n1` is entered as Mtb hypoxia rep: -7; Mtb hypoxia rep growth: -24; BJeLR lethal: 0; Sa RN4220 lethal: -0.8; Bead autofluor: 4040; Sa ugtP lethal: -3; PrP UTR inh: -3

Further structures follow:
SMILES	Mtb hypoxia rep	Mtb hypoxia rep growth	BJeLR lethal	Sa RN4220 lethal	Bead autofluor	Sa ugtP lethal	PrP UTR inh
CCn1c(CC(=O)Nc2ccccc2OC)nnc1SCC(=O)Nc1ccccc1F	-6	-1	-10	11	4046	5	-12
CCc1ccc(S(=O)(=O)Nc2cccc(C3OCCCO3)c2)cc1	9	-1	5	5.2	4778	10	-19
COCCn1c(SCC(=O)Nc2cc(C)on2)nc2ccccc21	-6	2	-6	7.4	4477	4	-10
O=Cc1ccc(Oc2cnccn2)cc1	-5	-6	1	4.1	2115	8	-5
CC(=O)c1ccc(NC(=O)C(C)n2nc(-c3ccccc3)c3cc(Cl)ccc32)cc1 (centres undefined)	/	/	-1	-6.8	4435	-22	-2
O=C(CN(CCc1ccccc1)C(=O)CNS(=O)(=O)c1ccccc1)NCc1ccco1	/	/	-3	2.3	4337	6	-25
CCOC(=O)N1CCC(NC(=O)CC(NS(=O)(=O)c2ccc(Cl)cc2)c2ccco2)CC1 (centres undefined)	/	/	-4	-1.6	2677	4	-14
O=C(O)c1ccccc1Nc1cccc(OCc2ccc3ccccc3n2)c1	0	6	/	34	5798	42	-24
O=C(NC1(C(=O)NC2CCCCC2)CCCCC1)c1ccccn1	2	1	-2	-3.8	6615	0	-3
CC(C)n1ncc2c(C(=O)NCC(=O)Nc3ccccc3Br)cc(C3CC3)nc21	2	-8	/	-3.6	/	5	6
CC1CCCC(CC(N)=O)CC1 (centres undefined)	6	12	/	4.2	4372	4	-1
COC(=O)c1cc(NC(=O)C2COc3ccccc3O2)ccc1Cl (centres undefined)	18	22	7	0.3	21646*	-7	-16
CCOC(CCNC(=O)c1cc2c(=O)[nH]c3ccccc3c2s1)OCC	7	4	-1	1.2	4273	0	-5
COc1ccc(Cl)cc1NC(=O)CN(C)C(=O)c1cn2ccccc2n1	4	7	/	4.6	5630	0	-11
O=C(c1ccc(NS(=O)(=O)c2cccs2)cc1)N1CCOCC1	2	8	8	-0.3	5769	3	-15
N#Cc1ccc(-c2ccc(OCC(O)Cn3nnc4ccccc43)cc2)cc1 (centres undefined)	/	/	/	9.4	4197	3	-12
Clc1ccccc1-c1nnc2sc(-c3ccncc3)nn12	/	/	-3	-4.1	4308	-9	-4

Filtered by structure, the compounds so far containing a cyano group.
SMILES	Mtb hypoxia rep	Mtb hypoxia rep growth	BJeLR lethal	Sa RN4220 lethal	Bead autofluor	Sa ugtP lethal	PrP UTR inh
N#CCn1nnc(-c2ccc3c(c2)OCO3)n1	-4	0	8	-1.3	5781	-11	1
Cc1ccc(CCC(=O)Nc2ccc(C#N)cc2)o1	-13	-5	-5	0.2	5758	-3	-5
N#Cc1ccc(-c2ccc(OCC(O)Cn3nnc4ccccc43)cc2)cc1 (centres undefined)	/	/	/	9.4	4197	3	-12
